NPYLR7 ag = activates Aedes aegypti NPYLR7 receptor | activation, % at 10 µM | HEK293T NPYLR7/Galpha15, GCaMP6s calcium fluorescence | hit rate 0.15% among 270,000; in the data active means activation above about 40%;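 further: 0% = vehicle and 100% = reference agonist at the receptor; some compounds past the cut are filed as inactive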
NPYLR7 ag max-min = second read-out of NPYLR7 ag, no call of its own (marks repeat the call); activation, %; measured here: Max-Min RFU normalised activation; some inactives read as strong as hits;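 span of the calcium signal over five minutes; 0% = vehicle and 100% = native peptide agonist; compound fluorescence can raise it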
The depositor's hits bear a star.

no. | Structure | NPYLR7 ag | NPYLR7 ag max-min
1 | CC(C)n1cc(C(=O)N2CCN(C)CC2)c2nn(-c3ccccc3)c(=O)c-2c1 | -1 | -4
2 | CN1CCNC(=O)C12CCN(C(=O)NCc1ccc(F)cc1)CC2 | 7 | 3
3 | CCOC(=O)C1(C)CCN1C(=O)c1ccc(OC)cc1 (stereo not drawn) | -2 | -6
4 | Cc1ccc2cc(NC(=O)C3(C)CCN3CC(C)C)ccc2n1 (stereo not drawn) | 8 | 6
5 | CCCCCC(=O)N1CCCC(C(=O)NC2CCCC[C@H]2N(Cc2ccc(Cl)cc2)S(=O)(=O)c2ccccc2)C1 (stereo partly drawn) | 20 | 17
6 | Cc1cc(C(=O)NNC(=O)NCCc2ccccc2)c(C)o1 | 1 | -1
7 | O=C(Oc1nsnc1N1CCOCC1)N1CCCCC1 | 6 | 2
8 | NC(=O)c1ccnc(NCc2ccc(Br)cc2F)c1 | -15 | -17
9 | Cc1cc(SCC(=O)N(C)Cc2nc3ccccc3c(=O)[nH]2)c(C)cc1Br | 4 | 10
10 | Cc1ccc(C2(O)CCN(C(=O)c3ncccc3O)CC2)nc1 | 8 | 4
11 | C=C(C)Cn1c(SC(C)CC)nc2c1c(=O)[nH]c(=O)n2C (stereo not drawn) | 3 | 2
12 | O=C(CN(CC1CCCO1)S(=O)(=O)c1ccc(Cl)cc1)N(Cc1ccc2c(c1)OCO2)Cc1ccco1 (stereo not drawn) | 22 | 24
13 | CCOC(=O)c1cnc(-c2ccc(C(F)(F)F)cc2)nc1NCc1ccc(C)o1 | 8 | 5
14 | CC(=O)N1CCN(CC(=O)N2N=C(c3ccccc3F)CC2c2ccccc2)CC1 (stereo not drawn) | -1 | 5
15 | CCC(C)N(Cc1cc(NC(=O)c2ccccc2Cl)ccc1N(C)C)C(=O)c1ccc(OC)cc1 (stereo not drawn) | 2 | 4
16 | O=C(CSc1ncc2ccccn12)Nc1ccc2c(c1)OCO2 | -8 | -12
17 | CCCCC(=O)N1CCN(c2nc(C)nc(C)c2Cc2cccc(OC)c2)CC1 | -1 | 14
18 | CNS(=O)(=O)c1cc(C(=O)N2CCN(C)CC2C)cc(C)c1C (stereo not drawn) | 4 | 2
19 | COc1cc(/C=C2\SC(NC(C)=O)=NC2=O)cc2sc(=O)oc12 | -3 | -8
20 | COCn1nc(-c2ccc(Cl)cc2Cl)oc1=S | 8 | 11
21 | O=C(c1cc2ccccc2oc1=O)N1CCCC(Nc2ccc(F)cc2)C1 (stereo not drawn) | 18 | 11
22 | CN(Cc1cc(-c2cccnc2)no1)Cc1cccc2c1OCO2 | -4 | -4
23 | COc1cccc(-c2n[nH]c(=O)c3nc(C)sc23)c1 | -5 | -6
24 | Clc1ccc(Cn2ccnc2CNc2ccccc2)c(Cl)c1 | -12 | -7
25 | Cc1occc1C(=O)NNS(=O)(=O)c1ccc(OC(F)(F)F)cc1 | -7 | -8
26 | C=CCN(c1ccccc1Cl)S(=O)(=O)c1cc(C(=O)O)ccc1Cl | 2 | 2
27 | CCOC(=O)CNC(=O)CN(C(=O)N1CCN(C)CC1)S(=O)(=O)c1ccc(C)cc1 | 9 | 4
28 | CCCCOCCCNC(=O)c1cnc2c(-c3cccc(C(F)(F)F)c3)cnn2c1C | 17 | 12
29 | CCc1cc(=O)oc2cc(OC(C)C(=O)N3CCCn4cncc4C3)ccc12 (stereo not drawn) | 22 | 12
30 | CC(C)COc1nc(-c2ccccc2F)n(-c2ccc(NC(=O)Cc3cccs3)cc2)n1 | 28 | 22

Three entries picked at random from the list so far:
no. | Structure | NPYLR7 ag | NPYLR7 ag max-min
15 | CCC(C)N(Cc1cc(NC(=O)c2ccccc2Cl)ccc1N(C)C)C(=O)c1ccc(OC)cc1 (stereo not drawn) | 2 | 4
23 | COc1cccc(-c2n[nH]c(=O)c3nc(C)sc23)c1 | -5 | -6
12 | O=C(CN(CC1CCCO1)S(=O)(=O)c1ccc(Cl)cc1)N(Cc1ccc2c(c1)OCO2)Cc1ccco1 (stereo not drawn) | 22 | 24

Next part.
no. | Structure | NPYLR7 ag | NPYLR7 ag max-min
31 | c1nc(NC23CC4CC(CC(C4)C2)C3)c2ccsc2n1 | -5 | -4
32 | Cc1ccc(C2(O)CCN(C(=O)c3cccc4c3NCCC4)CC2)nc1 | 4 | 1
33 | CCSc1nc(CC(=O)NCc2ccc(C(F)(F)F)nc2)cs1 | 8 | 4
34 | O=C(Nc1ccc(NC2CCCCC2)c2c1C(=O)c1ccccc1C2=O)c1ccccc1 | -4 | -8
35 | Cc1ccccc1C(=O)Nc1cccc(C2SCC(=O)N2c2ccc(C(F)(F)F)cc2)c1 (stereo not drawn) | 8 | 13
36 | CCOC(=O)c1ccc(NC(=O)C2CC(=O)N(C)C(=Nc3ccc(OC)cc3)S2)cc1 (stereo not drawn) | 5 | 3
37 | CC(Cn1cncn1)C(=O)NCc1cccnc1N1CCN(C)CC1 (stereo not drawn) | 2 | -4
38 | Cc1ccc(N(CCC(=O)NCC(C)C)S(=O)(=O)c2ccccc2)cc1 | 3 | 0
39 | COCCCNc1nc2ccccn2c(=O)c1C=C1SC(=S)N(C(C)c2ccccc2)C1=O (stereo not drawn) | 5 | 3
40 | Cc1c(C(=O)NCc2snnc2C(C)C)sc2ncn(C)c(=O)c12 | 3 | -4
41 | COc1cccc(-c2nc3ccc(Br)cn3c2NC2CCCCC2)c1 | -7 | -4
42 | CNc1ncc(C(=O)N2CCCC(CCc3ccccc3C)C2)cn1 (stereo not drawn) | 4 | 3
43 | CCc1ccc(C2=Nc3nnnn3C(c3ccc(Br)cc3)C2)cc1 (stereo not drawn) | -5 | -7
44 | Cc1occc1C(=O)NCc1ccc(OC(C)C)cc1 | -4 | -4
45 | CCN(CC(=O)NC(C)C)C(=O)c1cc(Cl)cc(Cl)c1 | -4 | -6
46 | CCCC(NC(=O)CCc1ccccn1)c1ccc(F)cc1F (stereo not drawn) | -3 | -7
47 | O=C(Nc1ccc(Oc2ccccc2F)cc1)C1CCN(C(=O)C2CC23CCC3)CC1 (stereo not drawn) | 2 | 1
48 | COc1c(F)ccc(-c2nc(C(C)C)nn2-c2ccccn2)c1F | 15 | -1
49 | Cc1ccc(Cn2nnc3c(=O)n(C/C=C/c4ccccc4)cnc32)cc1 | 10 | 9
50 | Cc1cccc(NC(=O)CSc2nc3[nH]ncc3c(=O)[nH]2)c1C | -2 | -3
51 | COc1ccc(C(=O)Oc2ccc3oc4c(c3c2)CCCC4)cc1OC | -5 | -9
52 | COc1ccc(CCNC(=O)c2cc(Br)ccc2NS(=O)(=O)c2cc(OC)ccc2OC)cc1 | 1 | -1
53 | CN(C)Cc1ccc(C(=O)N2CCNCC2C(=O)N2CCCC2)o1 (stereo not drawn) | 6 | -1
54 | O=C(NC1CCCc2ccccc21)c1ccc(-c2cc(-c3ccc(N4CCCCC4)cc3)n[nH]2)cc1 (stereo not drawn) | 31 | 20
55 | CCC(=O)Nc1cccc(C(=O)N2CCn3cccc3C2CC)c1 (stereo not drawn) | -5 | -6
56 | COc1nn(C)cc1C(=O)Nc1nnc(-c2ccco2)o1 | 7 | 6
57 | CN1CCC(N2CCCC(NC(=O)c3cccc(N(C)C)c3)C2)CC1 (stereo not drawn) | 3 | 1
58 | CCC(=O)NCc1ccccc1-c1ccc(OC)cc1C | 10 | 3
59 | CCOc1ccc(C2c3cccn3CCCN2Cc2ccoc2)cc1 (stereo not drawn) | 1 | 7
60 | Cn1c(=O)c2c(nc(CN3CCc4ccccc4C3)n2CCc2ccccc2)n(C)c1=O | 1 | -2

no. | Structure | NPYLR7 ag | NPYLR7 ag max-min
61 | CCn1c(SCc2ccc(C(=O)N3CCOCC3)cc2)nnc1-c1cccs1 | 26 | 30
62 | Cc1ccc(S(=O)(=O)NC(=O)C2(C)CCN2C(=O)c2ccc(C(F)(F)F)nc2C)cc1 (stereo not drawn) | 3 | 1
63 | COC(=O)c1ccc(C(=O)N2CCN(c3ncccc3NC(=O)c3ccc4c(c3)OCO4)CC2)cc1 | 5 | 2
64 | Cc1cc(C)c(CNC(=O)N2CCN(CC3CCCO3)CC2)c(=O)[nH]1 (stereo not drawn) | 0 | 12
65 | O=C(CCC1CCCN(C(=O)c2cccc(-n3cccn3)c2)C1)NCc1ccccc1F (stereo not drawn) | 3 | -3
66 | CN(CC(=O)Nc1c(Cl)cccc1Cl)S(=O)(=O)c1ccsc1C(=O)O | 4 | 2
67 | O=C(CN1C(=O)C(=O)N(CCC2=CCCCC2)C1=O)c1ccc(Cl)s1 | 3 | -1
68 | O=C1NC2=C(C(=O)OC2)C(c2ccccc2)N1 (stereo not drawn) | -11 | -12
69 | O=C(NN1CCOCC1)C1CC1c1cc(Cl)cc(Cl)c1 (stereo not drawn) | -3 | -4
70 | N#Cc1ccc(NCCNc2ncccc2C#N)c(F)c1 | 1 | -1
71 | Cc1nc2n(n1)C(=O)C(C(c1ccco1)N1CCCCC1)S2 (stereo not drawn) | -5 | -6
72 | CC(C)CN(Cc1cnn(C)c1)C(=O)CC1NC(=O)c2ccccc21 (stereo not drawn) | -2 | -4
73 | CCc1nc2ccc(C(=O)NCCN3CCOCC3)cn2c1N(C)Cc1ccc(Cl)cc1 | 6 | 13
74 | Cc1ccn2c(NC(C)(C)C)c(-c3ccc(C(F)(F)F)cc3)nc2c1 | -7 | -5
75 | CCOC(=O)NC(=O)CSc1nncs1 | -4 | -7
76 | CCN1CCN(c2nc(CSc3nnc(C)s3)cc(=O)[nH]2)CC1 | 3 | -1
77 | C=CCN(CC=C)C(=O)CSc1nnc(-c2cccnc2)n1-c1ccccc1F | -8 | -4
78 | CCSc1nc(CC(=O)N[C@@H]2C[C@@H](C(=O)OC)N(C)C2)cs1 | 18 | 4
79 | CCc1ccccc1OCCN(C)C(=O)c1n[nH]c(CC)c1C | 0 | 0
80 | CC(NC(=O)c1ccccn1)c1ccccc1F (stereo not drawn) | 1 | 1
81 | CCOC(=O)c1cc(C(=O)NC(C)c2ccco2)cc([N+](=O)[O-])c1 (stereo not drawn) | -9 | -9
82 | COc1ccc(OC)c(C2CC(c3ccc(C)c(C)c3)=NN2C(=O)CN2CCN(c3ccccc3F)CC2)c1 (stereo not drawn) | -1 | 4
83 | Cc1ccccc1NC(=O)CC(=O)NCc1cc(F)ccc1F | 4 | -2
84 | CC(NC(=O)C1=NNC(=O)CC1)c1ccccc1-n1cccn1 (stereo not drawn) | 7 | 4
85 | O=C(O)CSc1nc(Cl)cc(N2CCN(c3cccc(Cl)c3)CC2)n1 | -8 | -16
86 | Cc1cc(C)c2c(=O)[nH]c(SCc3nnc(-c4ccc(Cl)cc4)o3)nc2n1 | 1 | 0
87 | CN(CCC#N)C(=O)CSc1ncnc2c1cnn2-c1ccccc1 | -8 | -7
88 | CCCc1cc(C(=O)OCC)nn1C1CCN(S(=O)(=O)c2ccc(OC(F)(F)F)cc2)CC1 | 11 | 6
89 | CC(C)c1ccc(CN(C)Cn2nc3n(C)c(=O)c4ccccc4n3c2=S)cc1 | 13 | 16
90 | COCCCNC(=O)C(NC(=O)c1ccccc1C)C1CCN(C(=O)c2cccc(F)c2)CC1 (stereo not drawn) | 17 | 23

In another format: entries from further up
64. Cc1cc(C)c(CNC(=O)N2CCN(CC3CCCO3)CC2)c(=O)[nH]1 (stereo not drawn)
65. O=C(CCC1CCCN(C(=O)c2cccc(-n3cccn3)c2)C1)NCc1ccccc1F (stereo not drawn)
66. CN(CC(=O)Nc1c(Cl)cccc1Cl)S(=O)(=O)c1ccsc1C(=O)O
67. O=C(CN1C(=O)C(=O)N(CCC2=CCCCC2)C1=O)c1ccc(Cl)s1
68. O=C1NC2=C(C(=O)OC2)C(c2ccccc2)N1 (stereo not drawn)
69. O=C(NN1CCOCC1)C1CC1c1cc(Cl)cc(Cl)c1 (stereo not drawn)

compound no.,64,65,66,67,68,69
NPYLR7 ag,0,3,4,3,-11,-3
NPYLR7 ag max-min,12,-3,2,-1,-12,-4

Continuation.
no. | Structure | NPYLR7 ag | NPYLR7 ag max-min
91 | CC1CN(c2ncnc3c2cnn3CCNC(=O)c2cc(-c3ccccc3)on2)CC(C)O1 (stereo not drawn) | 5 | 3
92 | O=C(NCCNc1ncc(F)c(N2CCCC2)n1)c1cccnc1 | 1 | 2
93 | OCCN1CCN(CC2CC3C=CC2C3)CC1 (stereo not drawn) | -2 | -11
94 | Cc1cccc(N2CCN(CCNc3cncc(Cl)n3)CC2)c1 | -15 | -20
95 | Cc1ccc(NC(=O)COc2ccc3c(=O)ccoc3c2)cc1 | -7 | -11
96 | CCn1ncnc1C(C)NC(=O)c1cc(-n2cccn2)ccc1Cl (stereo not drawn) | 12 | 13
97 | COc1ccc(C2=NN(C(=O)CN3CCOCC3)C(c3cc(OC)ccc3OC)C2)c(OC)c1 (stereo not drawn) | 13 | 10
98 | CCc1nc(-c2c(-c3ccccc3)ncn2CCSc2cn[nH]n2)c(C)[nH]1 | 23 | 13
99 | CCN1CCC(Nc2cncc(-n3nc(C)cc3C)n2)CC1 | 7 | 3
100 | CCCc1nnc(NC(=O)C(C)N2C(=O)C3C4C=CC(C4)C3C2=O)s1 (stereo not drawn) | 2 | -1
101 | Nc1ccc([N+](=O)[O-])c(C(F)(F)F)c1 | 0 | 7
102 | O=C(NCc1ccc(C(F)(F)F)cc1)c1ccc(-c2cc(-c3ccc(Cl)cc3)[nH]n2)cc1 | 4 | 5
103 | CCN(CC)C(=O)c1cc(C(C)(C)C)n2nc(C)nc2n1 | 7 | 4
104 | CNC(=O)[C@@H]1[C@@H](OC)C(=O)N(C)C12CCN(C(=O)Nc1ccccc1)CC2 | 18 | 18
105 | CC(C)(C)c1cc(N2CCN(Cc3ccccc3)CC2)nc(SCc2cccc(C(=O)O)c2)n1 | 11 | 21
106 | COc1ccc(S(=O)(=O)NCCc2nnc3ccc(SCC(=O)Nc4ccccc4)nn23)cc1 | 2 | -4
107 | O=C(NC1CCN(C(=S)NC2CC3CCC2C3)CC1)c1ccccc1F (stereo not drawn) | 6 | 4
108 | COCCCNC(=O)c1ccccc1N1CCC(NS(=O)(=O)c2ccc(F)cc2)CC1 | 23 | 27
109 | CCOC(=O)CC1COCCN1C(=O)Cc1cnc2c(C)cccn12 (stereo not drawn) | -4 | -8
110 | CC(Oc1ccc(Cl)cc1Cl)C(=O)NCCn1nc(-c2ccco2)ccc1=O (stereo not drawn) | -1 | -3
111 | Cc1c(C#N)c(Cl)nc(C(C)C)c1C#N | 0 | -3

Bioassay records (PubChem)

A portion of the library. The share of hits here may be higher or lower than overall.
